GIV Gai3 FP: GIV-Galpha-i interaction inhibition; P08753; Galpha-i3/FITC-GIV peptide fluorescence polarization, 90 min; stronger effect = lower value; scaled: aluminum fluoride 0%, vehicle 100%; percent of control (FP), % (test concentration not listed); 0.42% of 210,000 active; AID 1224905;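 active = replicate mean at 85% of control or lower, very high polarization wells dropped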;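 also: wells of about 15 µL received 100 nL stock; the first replicate is given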
Target sequence (P08753 whole entry, looked up): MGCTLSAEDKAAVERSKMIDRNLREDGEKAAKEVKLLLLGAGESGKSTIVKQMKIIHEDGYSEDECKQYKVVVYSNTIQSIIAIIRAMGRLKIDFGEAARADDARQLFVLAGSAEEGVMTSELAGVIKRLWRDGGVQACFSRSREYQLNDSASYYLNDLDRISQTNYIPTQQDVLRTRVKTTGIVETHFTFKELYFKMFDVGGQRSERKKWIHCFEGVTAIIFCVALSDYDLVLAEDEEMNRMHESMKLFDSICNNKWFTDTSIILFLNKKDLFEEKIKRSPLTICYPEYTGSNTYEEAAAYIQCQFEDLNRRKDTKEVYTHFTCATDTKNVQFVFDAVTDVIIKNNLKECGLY
Sa growth inh: inhibitors of Staphylococcus aureus growth at 42 °C | S. aureus RN4220 growth, OD600, 20 h; stronger effect = lower value | relative growth, % (concentration not given with the values) | 0.53% of 170,000 active;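 active = growth at 42 °C up to 50% and 20 or more points under that at 30 °C, or under 10% at both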;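 also: 300 nL library stock went into each well; scaled to the means of positive and negative controls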
HCMV UL50-53 inh: inhibitors of HCMV UL50-UL53 nuclear egress complex interaction. HTRF UL50-UL53 interaction, normalized percent inhibition. inhibition, % (concentration not given with the values). 0.15% of 190,000 active. AID 1918969;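 active = both replicates at 50% or more, plus weaker picks with an unusually low signal ratio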;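 also: stock transfer was 100 nL into about 20 µL; 0% = negative control wells and 100% = wells with untagged competitor protein; inactives centre near -12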
Sa growth inh second temp: further read-out of Sa growth inh, marked with its call; relative growth, %; measured here: growth at 30 °C;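 optical density after 20 h as mean of two plates; 100% = untreated growth and lower means inhibition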
Active calls of the source: *; nt = no result given; & = joins results of further samples.

SMILES | GIV Gai3 FP | Sa growth inh | Sa growth inh second temp | HCMV UL50-53 inh
CC1=Nc2cc(C(=O)NC(C)C)ccc2Sc2ccc(C)cc21 | 108 | 114 | 84 | -8
COc1ccc(C2Nc3ccccc3C(=O)N2Cc2ccco2)cc1COc1ccc([N+](=O)[O-])cc1 (stereo not drawn) | 100 | nt | nt | -30
CCN(CC)C(=O)c1cc(-c2cccs2)nn1-c1ccccc1 | nt | 90 | 84 | -20
Cc1ccc(N(Cc2cccs2)C(=O)c2ccc(OC(C)C)cc2)cc1 | 111 | 86 | 81 | -3
Cc1cccc(C(=O)Nc2ccc(N3CCCC3)c(NC(=O)Nc3ccccc3Cl)c2)c1 | 101 | nt | nt | -30
Cc1ccc2oc(=O)c3cc(C(=O)N4CC=C(c5ccccc5)CC4)sc3c2c1 | 101 | nt | nt | -12
CCN(CC)CCNc1nc2c(c(=O)n(C)c(=O)n2C)n1CCc1ccccc1 | 103 | 71 | 114 | 24
C=CCN1C(=O)/C(=C\c2ccc(Oc3nc(N4CCOCC4)nc(N4CCOCC4)n3)c(OC)c2)SC1=S | 106 | nt | nt | -6
CN1C(=O)c2ccccc2N2C(=O)CCC12C(=O)O (stereo not drawn) | nt | 86 | 96 | -16
CCn1c(COc2cc(C)ccc2C)nnc1SC(C)C(=O)Nc1ccc2c(c1)OCO2 (stereo not drawn) | 103 | 73 | 82 | nt
COc1ccccc1N1CCN(S(=O)(=O)c2ccc3[nH]cc(C(=O)O)c(=O)c3c2)CC1 | 108 | 103 | 81 | nt
COc1ccc(CNC(=O)C2=C(c3ccccc3)c3cc(Cl)ccc3S(=O)(=O)N2C)cc1OC | 101 | nt | nt | -15
CCOC(=O)Nc1c[nH]c2c(C)cccc2c1=O | 98 | 79 | 93 | -24
C/C(=N\NC(N)=S)C1Cc2ccccc2C(=O)O1 (stereo not drawn) | nt | 94 | 97 | -26
CSc1nc(NC2CCCCC2)c(C#N)c(-c2ccccc2)n1 | 99 | 92 | 90 | 3
c1ccc2c(c1)CC(N1CCN(c3cccc4c3OCCO4)CC1)C2 | 102 | nt | nt | -3
CCOC(=O)c1cc(-c2ccc(C)cc2)n(CCC(=O)NCCc2ccc(C)cc2)c1C | 98 | 99 | 87 | -32
S=c1[nH]nc(COc2ccccc2)n1/N=C/c1cccnc1 | 107 | 100 | 94 | -3
Cn1nc(C(=O)NCCCN2CCCC2=O)c2c1-c1cc(F)ccc1SC2 | 102 | nt | nt | -17
Cc1ccn2c(Nc3ccc4c(c3)OCO4)c(-c3ccc(O)cc3)nc2c1 | 102 | 95 | 93 | -18
CCOC(=O)C1CCCN(S(=O)(=O)c2cc(Br)cc3c2N(C(=O)CC)CC3)C1 (stereo not drawn) | 100 | 95 | 80 | -14
COc1ccccc1OCCNC(=O)c1ccc(S(C)(=O)=O)cc1 | nt | 99 | 91 | -30
CCCCOc1ccc(NC(=O)c2cc3c(n(-c4ccc(Cl)cc4)c2=O)CCCC3=O)cc1 | 96 | 118 | 98 | 15
Cc1ccc(CCNC(=O)c2ccc(CS(=O)(=O)c3ccc(Br)cc3)o2)cc1 | 103 | 95 | 99 | 9
CCN(CC)C(=S)Oc1ccccc1C(=O)Nc1ccc(Cl)c(Cl)c1 | 99 | 85 | 70 | -27
CC1=C(C(=O)OCCOc2ccccc2)C(c2ccc(O)c([N+](=O)[O-])c2)NC(=O)N1 (stereo not drawn) | 105 | nt | nt | -30
CCOC(=O)c1c(C)[nH]c(C)c1S(=O)(=O)N1CCC(C(=O)NCc2ccccc2)CC1 | 109 | 79 | 88 | nt
Cc1ccc(C(=O)OCC(=O)Nc2c(F)c(F)c(F)c(F)c2F)s1 | nt | 126 | 87 | -35
Cc1cc(C)cc(OCC(=O)OCC(=O)NC2CC2)c1 | nt | 111 | 91 | -7
CC(=O)N1CCc2cc(S(=O)(=O)NC(CC(C)C)C(=O)N(C)Cc3ccccc3)ccc21 (stereo not drawn) | 98 | 79 | 81 | -11
Cc1nc2nc(SCC(=O)NCc3ccccc3Cl)nn2c(C)c1Cc1ccccc1 | 103 | 88 | 83 | -16
COCCCN1C(=O)/C(=C/c2c(N3CCN(C)CC3)nc3c(C)cccn3c2=O)SC1=S | 62* | nt | nt | -45
NC(=O)C1CCN(C(=O)C2c3ccccc3C(=O)N3CCc4ccccc4C23)CC1 (stereo not drawn) | 104 | 101 | 93 | -4
Cc1cccc(C(=O)N/N=C/c2ccc3c(c2)n(C)c(=O)n3C)c1 | 106 | 114 | 88 | -24
COC(=O)c1ccc(NC(=O)c2c(-c3ccccc3)c(-c3ccccc3)n[nH]c2=O)cc1 | 101 | nt | nt | -17
CC(=O)N1CCN(C(=O)C(=O)Nc2c3c(nn2-c2ccc(Cl)cc2)CSC3)CC1 | 99 | 162 | 82 | nt
O=c1[nH]c(=O)n(Cc2cccnc2)c2c1CN(C1CCCC1)CN2 | 95 | nt | nt | -5
Cc1c(/C=C(\C#N)C(=O)O)cc(C#N)n1C | nt | 76 | 98 | -22
COC(=O)c1ccc(-c2c(NCc3ccccc3)oc3c2c(=O)n(C)c(=O)n3C)cc1 | 107 | nt | nt | -22
Cc1cc(O)c(-c2ccnc3cc(-c4ccccc4)nn23)cc1Cl | 107&99 | 85 | 103 | -1&-7
Cc1ccc2c(c1)c1c(n2CC(O)CN2CCCCC2)C(=O)CCC1 (stereo not drawn) | 105 | 83 | 73 | -47
Cc1ccc(CN(C)C(=O)CSc2nc(N)cc(N)n2)cc1 | nt | 99 | 97 | 2
O=C(Nc1cccc(Cl)c1)c1cc2c(s1)-c1ccccc1S(=O)(=O)C2 | 103 | 94 | 88 | 2
COc1ccc(-c2noc(CSc3nnc(-c4ccc(Cl)cc4)n3C)n2)cc1OC | 105 | 108 | 83 | -8
Cc1ccc(S(=O)(=O)N2CCN(Cc3ccccc3)CC2)c(C)c1NS(C)(=O)=O | 102 | 98 | 88 | nt
N#Cc1c(/N=C/c2cc(Cl)cc(Cl)c2O)sc2c1CCC2 | nt | 97 | 87 | -12
CCN(CC)C(=O)COc1ccc2ccc(=O)oc2c1 | 104 | 114 | 106 | -18
CN(Cc1ccccc1)c1nc(-c2ccccc2)no1 | 104 | 85 | 70 | -21
COc1cc(C(=O)CSc2cccc[n+]2[O-])cc(OC)c1OC | nt | 106 | 58 | -22
COC(=O)C1=C(C)NC(=O)CC1C(=O)Nc1ccccc1 (stereo not drawn) | 101 | 89 | 69 | -13
CC(C)(C)c1ccc(Oc2ccc(NC(=O)CSCC(=O)O)cn2)cc1 | 98 | 104 | 92 | -15
Cc1ccc2c(=O)c(C(=O)c3ccccc3)cn(CC(=O)Nc3ccccc3)c2n1 | 113 | 99 | 90 | nt
O=C(CNS(=O)(=O)c1cccs1)N1CCCCC1 | 103 | 109 | 83 | nt
CCC12CC3CC(Br)(C1)CC(C(=O)O)(C3)C2 (stereo not drawn) | nt | 116 | 84 | -10
CC(C)OC(=O)c1cccnc1SCC(=O)Nc1ccc(C(F)(F)F)cc1Cl | 99 | 103 | 94 | nt
C=CCOc1cccc(C(=O)N2CCN(C)CC2)c1 | 105 | 98 | 103 | -28
Cc1ccc2[nH]c3c(=O)n(CC(=O)N(CCN(C)C)Cc4ccccc4)ncc3c2c1 | 113 | 115 | 95 | nt
O=C(CSc1ncccn1)NN=C1CCCCCC1 | 108 | 77 | 70 | -7
COc1ccc(C2NC(=O)N(C)C(C)=C2C(=O)Nc2ccccc2)cc1 (stereo not drawn) | 114 | 89 | 81 | -27
COc1ccccc1N(Cc1nc2nc(C)cc(C)n2n1)C(=O)C(C)(C)C | 105 | nt | nt | -28

Looked up one by one from above:
SMILES | GIV Gai3 FP | Sa growth inh | Sa growth inh second temp | HCMV UL50-53 inh
CC(C)OC(=O)c1cccnc1SCC(=O)Nc1ccc(C(F)(F)F)cc1Cl | 99 | 103 | 94 | nt
CCN(CC)C(=O)COc1ccc2ccc(=O)oc2c1 | 104 | 114 | 106 | -18
CCC12CC3CC(Br)(C1)CC(C(=O)O)(C3)C2 (stereo not drawn) | nt | 116 | 84 | -10
O=C(CNS(=O)(=O)c1cccs1)N1CCCCC1 | 103 | 109 | 83 | nt
Cc1ccc2c(=O)c(C(=O)c3ccccc3)cn(CC(=O)Nc3ccccc3)c2n1 | 113 | 99 | 90 | nt
COc1ccccc1N(Cc1nc2nc(C)cc(C)n2n1)C(=O)C(C)(C)C | 105 | nt | nt | -28

Next section
SMILES | GIV Gai3 FP | Sa growth inh | Sa growth inh second temp | HCMV UL50-53 inh
Cc1c2cnn(CC(=O)NC(C)C)c(=O)c2c(C)n1Cc1cccc(Cl)c1 | 104 | 95 | 85 | -22
O=C(CN(Cc1ccco1)C(=O)c1nsc(Cl)c1Cl)NC1CCCCC1 | 101 | 84 | 82 | 14
CCCc1nnc2n1NC(c1ccc(CC)cc1)C(C(=O)Nc1ccc(C)cc1)S2 (stereo not drawn) | 109 | nt | nt | 8
COC(=O)c1sccc1N1Cc2ccncc2C1=O | 105 | nt | nt | -30
CN(C)C(=O)CCc1nc2ccccc2n1-c1ccccc1 | nt | 94 | 85 | -26
COC(=O)Cc1c(C)c2ccc(O)cc2oc1=O | 103 | 106 | 77 | -26
Cc1sc2nc(CN3CCCC3)nc(Sc3nnnn3C3CC3)c2c1C | nt | 82 | 90 | -11
O=C(O)c1ccc(CCO)s1 | 107 | 75 | 89 | nt
Cc1ccc(CCNC(=O)CCSCc2ccccc2F)cc1 | 103 | 105 | 91 | nt
NC(=O)COC(=O)C12CC3CC(CC(Br)(C3)C1)C2 | nt | 103 | 83 | -21
N#CCn1c(Cc2ccccc2)nc2ccccc2c1=O | 113 | 85 | 64 | 18
O=C(NC1CCCC1)c1ccc(S(=O)(=O)N2CCCCCC2)cc1 | nt | 109 | 94 | -2
O=C(Cn1c(=O)cc(C(=O)NCc2ccccc2)c2ccccc21)Nc1cccc(Cl)c1 | 112 | nt | nt | 1
COc1cccc(NC(=S)N(CCC#N)/N=C/c2ccc3c(c2)OCO3)c1 | 109 | 109 | 100 | 5
Cc1noc(C)c1C(=O)N1CCc2sccc2C1c1ccc(C(F)(F)F)cc1 (stereo not drawn) | 99 | 90 | 91 | -15
NC(=O)CSc1nc2cc(Cl)ccc2s1 | 95 | 104 | 81 | -2
CN(C)CCNc1cc(-c2ccccc2)nc2ccccc12 | 99 | 102 | 80 | -1
COCCCNc1ncnc2c1cnn2-c1ccc(F)cc1 | 102 | 120 | 77 | nt
CCn1c(Cn2cccn2)nc2cc(NC(=O)c3cccc(C)c3)ccc21 | 98 | nt | nt | -16
COc1ccc(OC)c(CNC(=O)c2nnc(C(=O)Nc3cccc(Cl)c3)s2)c1 | 107 | nt | nt | 1
Cc1ccsc1/C=N/NC(=O)C1C2CCCCC21 (stereo not drawn) | 102 | 107 | 104 | 2
O=S1(=O)CCC(S(=O)(=O)N2CCN(C(c3ccccc3)c3ccccc3)CC2)C1 (stereo not drawn) | 104 | nt | nt | -24
COCC(=O)N1CCCN(c2ccc(=O)n(-c3ccccc3)n2)CC1 | 101 | nt | nt | -2
CCC(=O)NCc1ccc(-c2nc3ncccc3o2)cc1 | 102 | 87 | 83 | -28
CCc1ccc2c(COC(=O)CSCc3c(C)noc3C)cc(=O)oc2c1 | nt | 100 | 77 | -36
O=C(NCc1ccc(Cl)cc1)c1ccc(Cn2c(=O)[nH]c3ccsc3c2=O)cc1 | 97 | 116 | 94 | nt
CC1CC(=O)c2ccc(O)cc21 (stereo not drawn) | 105 | 102 | 91 | -22
COc1cccc(NC(=O)c2sc3nc(C)c(C(=O)Nc4ccc(C)cc4C)c(-c4ccc(Br)cc4)c3c2N)c1 | 106 | 94 | 94 | 0
Cc1ccc(NC(=O)C2CCCN(S(=O)(=O)c3cccc4cccnc34)C2)c(C)c1 (stereo not drawn) | 100 | 106 | 86 | -22
CC(C)c1nc(N2CCN(C(=O)c3ccccc3)CC2)c(C#N)c2c1COC(C)(C)C2 | 101 | 109 | 84 | -4
Nc1ccccc1-n1ccnc1 | 108 | 106 | 96 | 2
CCOC(=O)COc1ccc2c(C#N)c3ccccn3c2c1 | 43* | nt | nt | -25
COc1ccc(CNC(=O)c2cn(C)c3c(=O)n(-c4ccccc4)c(=O)[nH]c23)cc1 | 101 | nt | nt | -5
CCCc1cc(=O)n2nc(N3CCC(C(=O)NCC4CCCO4)CC3)sc2n1 (stereo not drawn) | 106 | nt | nt | -12
COc1ccccc1N1CCN(C(=O)CCS(=O)(=O)c2ccc3c(c2)oc(=O)n3C)CC1 | 104 | 103 | 96 | nt
CC1=CC(=C2C(=O)NC(=S)NC2=O)C=C(C)N1CCc1ccccc1 | 98 | 84 | 88 | -29
CC1(C)CC(=O)C2=C(C1)OC(N)=C(C#N)C2c1c2ccccc2cc2ccccc12 (stereo not drawn) | 108 | nt | nt | -36
CC(=O)OCCn1c(=O)c2cc3c(=O)n(CCOC(C)=O)c(=O)c3cc2c1=O | 104 | 90 | 94 | -9

An excerpt from above in order of molecular weight, descending:
SMILES | GIV Gai3 FP | Sa growth inh | Sa growth inh second temp | HCMV UL50-53 inh
CCCc1cc(=O)n2nc(N3CCC(C(=O)NCC4CCCO4)CC3)sc2n1 (stereo not drawn) | 106 | nt | nt | -12
COc1ccc(CNC(=O)c2cn(C)c3c(=O)n(-c4ccccc4)c(=O)[nH]c23)cc1 | 101 | nt | nt | -5
CC1(C)CC(=O)C2=C(C1)OC(N)=C(C#N)C2c1c2ccccc2cc2ccccc12 (stereo not drawn) | 108 | nt | nt | -36
Nc1ccccc1-n1ccnc1 | 108 | 106 | 96 | 2

Bioassay records as filed in PubChem.
